High-throughput results from PubChem BioAssay.
GLA inh pH 4.5 – qHTS Assay for Inhibitors of Human alpha-Galactosidase at pH 4.5; activity change, negative = inhibition, % at 105 µM; AID 1467, 2008; purified enzyme, 4-MU-alpha-Gal fluorescence, pH 4.5; Alpha-galactosidase A (Homo sapiens), P06280; 230,000 tested, under 10 active; inconclusive = small, poorly fitted or top-dose-only inhibition, or a rising curve; inactive = flat fitted curve, though single readings scatter; no compound was filed as active;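 further: 0% = full activity with enzyme and -100% = basal without enzyme; dose as in the result columns while the protocol names 77 µM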
Rango-impB inh – qHTS Assay for Inhibitors of Rango (Ran-regulated importin-beta cargo) - Importin beta complex formation. AID 540263, 2011. Importin subunit beta-1 (Homo sapiens), Q14974. 340,000 compounds, 0.031% hits. Rango CFP/YFP FRET sensor + importin beta, 45 min. Potency, µM (highest dose often 92.2 µM), for inactives: top-dose inhibition of complex formation; active = rising FRET ratio curve, often small or poorly fitted; inconclusive = mostly compound fluorescence or quenching in the first reads; inactive = flat curves in all reads;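 further: potency means the concentration at half of the fitted maximal effect; 0% = DMSO wells and 100% = buffer wells lacking importin beta; nearly all actives have a fitted effect of over 15% in size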
Target sequence (Q14974 whole entry, looked up): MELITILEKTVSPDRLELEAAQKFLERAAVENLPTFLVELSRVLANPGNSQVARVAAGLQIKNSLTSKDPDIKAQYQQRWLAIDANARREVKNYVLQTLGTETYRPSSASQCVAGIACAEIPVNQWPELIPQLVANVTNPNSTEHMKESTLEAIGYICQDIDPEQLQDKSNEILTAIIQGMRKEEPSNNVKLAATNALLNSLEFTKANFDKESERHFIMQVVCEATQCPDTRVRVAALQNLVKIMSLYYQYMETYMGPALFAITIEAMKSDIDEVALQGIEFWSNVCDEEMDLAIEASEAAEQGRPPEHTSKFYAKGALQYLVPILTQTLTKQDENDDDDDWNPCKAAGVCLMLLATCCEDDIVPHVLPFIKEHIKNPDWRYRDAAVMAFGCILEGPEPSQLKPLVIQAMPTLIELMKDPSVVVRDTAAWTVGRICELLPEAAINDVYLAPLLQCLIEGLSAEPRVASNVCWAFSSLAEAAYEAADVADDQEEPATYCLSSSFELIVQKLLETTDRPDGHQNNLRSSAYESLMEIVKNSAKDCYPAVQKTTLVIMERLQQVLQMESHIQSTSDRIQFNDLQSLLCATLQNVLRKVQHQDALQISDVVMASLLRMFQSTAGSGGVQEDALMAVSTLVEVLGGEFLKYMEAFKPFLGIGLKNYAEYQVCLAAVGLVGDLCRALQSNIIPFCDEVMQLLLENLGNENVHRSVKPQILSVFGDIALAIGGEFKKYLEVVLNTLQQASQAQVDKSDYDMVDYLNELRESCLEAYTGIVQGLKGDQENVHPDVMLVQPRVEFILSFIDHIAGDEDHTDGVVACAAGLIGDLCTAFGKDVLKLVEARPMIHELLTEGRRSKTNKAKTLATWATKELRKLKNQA
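Inhibition scored from the CFP 486 nm/YFP 530 nm FRET ratio 45 min after adding 0.125 microM importin beta to 50 nM Rango biosensor preincubated 5 min with compound (room temperature, PBS with DTT, Tween-20, BSA). No-importin wells as positive control.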
miR-21 reporter – qHTS Assay for Modulators of miRNAs and/orActivators of miR-21; Potency, µM (highest dose often 38.3 µM), inactives show top-dose reporter change, positive = more light; 340,000 tested, under 10 active; HeLa miR-21 FLuc reporter, luciferase, 48 h; active = well fitted rising curve with a large enough effect; inconclusive = small, poorly fitted or top-dose-only effect; inactive = no such curve, though single readings can be large or run the other way;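 further: % of control where 0% means no effect; miR-21 action dims this reporter so a rising signal means less miR-21 action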
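Luminescence from a firefly luciferase reporter carrying a miR-21 binding site downstream, stably expressed under a CMV promoter in HeLa cells that make miR-21 endogenously, reports miRNA modulation after 48 h compound exposure up to approximately 40uM final.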
Rango dissoc inh – qHTS Assay for Inhibitors of RanGTP induced Rango (Ran-regulated importin-beta cargo) - Importin beta complex dissociation; Biochemical FRET Rango-importin beta, RanGTP-induced dissociation; Potency, µM (doses to about 46.1 µM), for the others: at the top dose activity change, negative = inhibition; Snurportin-1 (Homo sapiens) + GTP-binding nuclear protein Ran (Homo sapiens) + Importin …; 340,000 compounds, 0.071% hits; active means falling FRET ratio curve, often poorly fitted, with flat reads before Ran was added; inconclusive means other falling curves, or compound fluorescence or quenching; inactive means flat or rising ratio curve;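 further: potency means the concentration at half of the fitted maximal effect; % of control where 0% means no effect; nearly all actives have a fitted effect of over 45% in size; -100% = wells without RanGTP and RCC1; the record marks most hits as doubtful in a second field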
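FRET read at 45 min, room temperature: inhibitors block the CFP/YFP signal rise when RanGTP (0.6 uM Ran, 2 mM GTP, 0.2 uM RCC1) frees Rango (0.1 uM) from importin beta (0.25 uM). Pre-read after 5 min compound exposure flags interference.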
Active calls of the source: *; ? = inconclusive; · = no result given; & = joins results of further samples. These rows are one share of the data; count on the stated rates, not on these rows.

#	Compound	GLA inh pH 4.5	Rango-impB inh	miR-21 reporter	Rango dissoc inh
1	CC1CCN(c2nc3c(cc2C#N)COC(C)(C)C3)CC1	11	-0.9%	-8%	19%
2	CN(C(=O)c1ccc(C#N)cc1)c1nnc(-c2cnccn2)s1	7	1.2%	0%	-6%
3	COc1ccc(NC(=O)c2sc(N3CCOCC3)nc2-c2ccccc2)c(OC)c1	2	0.0%	8%	-12%
4	COC(=O)COc1c(Cl)cc(Cl)c2ccc(C)nc12	12	-3.7%	2%	22%
5	COc1ccccc1NC(=O)CCn1c(=O)sc2ccccc21	1	5.0%	-13%	0%
6	COc1ccc(NS(=O)(=O)c2ccc(NS(C)(=O)=O)cc2)cc1	-2	-0.3%	-1%	0%
7	CCOC(=O)N1CCN(C(=O)c2ccc(Oc3ccc([N+](=O)[O-])cc3)cc2)CC1	-4	-5.1%	5%	23%
8	COc1ccc(NC(=S)NCc2ccc(S(N)(=O)=O)cc2)cc1OC	9	0.0%	2%	3%
9	CN(C)c1oc(-c2ccccc2Cl)nc1C#N	0	-0.9%	-38%	-1%
10	C=CCn1c(O)c(C=Nc2ccccc2)sc1=S	-2	?	-51%	?
11	COc1cc(C(=O)N(Cc2ccccn2)CC2CCCO2)cc(OC)c1OC (stereo not given)	4	4.3%	0%	2%
12	Cc1cccc(C)c1NC(=S)NCCc1ccccn1	-10	4.6%	-2%	-8%
13	COc1cccc(C(=O)N/N=C/c2ccc(OC3CSC3)cc2)c1	9	-2.0%	-3%	-10%
14	CCOC(=O)C1CCCN(S(=O)(=O)c2cccc3cccnc23)C1 (stereo not given)	-12	2.8%	1%	-10%
15	Cc1ccc(NC(=O)CN(C)C(=O)CSc2n[nH]c(N)n2)cc1	2	0.7%	-1%	5%
16	Cc1cc(C(=O)OCC(=O)NCc2ccco2)c(C)o1	10	-3.0%	-7%	-3%
17	COc1ccc(N2CCN(c3nc(Cl)nc(N4CCOCC4)n3)CC2)cc1	1	-3.1%	-4%	9%
18	COc1ccc(-c2c(C(F)(F)F)oc3cc(OCC(=O)Nc4ccccc4C(F)(F)F)ccc3c2=O)cc1OC	-3	0.0%	-2%	2%
19	Cc1ccc(/C(N)=N/OC(=O)CCc2ccccc2)cc1	-6	4.3%	-45%	17%
20	COc1cc(/C=C(\C#N)c2ccccn2)ccc1OCc1ccccc1Cl	-6	?	-4%	?
21	CCN(CC)CCCNC(=O)c1cn(CC(C)C)c(=O)c2c1c1ccccc1n2C	·	-1.2%	-1%&-6%	14%
22	Cc1nonc1NCn1nnc2ccccc21	2	-4.8%	-6%	13%
23	CC(=O)OCC(=O)C1(O)CCC2C3CCC4C(OC(C)=O)C(=O)CCC4(C)C3C(=O)CC21C (stereo not given)	·	3.1%	·	-10%
24	O=c1[nH]ncc(N/N=C\c2ccc(O)cc2O)c1Cl	-13	-3.1%	-30%	-6%
25	CSc1nnc(-c2sccc2-n2cccc2)o1	-5	-1.2%	-5%	0%
26	Cn1nc([N+](=O)[O-])c(C(C#N)c2nc3ccccc3n2C)c(Cl)c1=O (stereo not given)	-6	?	11%	?
27	COc1ccc(C(=O)COC(=O)c2ccc(NC(C)=O)cc2)cc1[N+](=O)[O-]	15	1.0%	-9%	-9%
28	Cc1ccc(S(=O)(=O)Nc2cccc(C(=O)NCC(c3ccco3)N3CCCCC3)c2)cc1F (stereo not given)	·	3.5%	·	-1%
29	Cc1nn(CC#N)c(=O)n1-c1cccc(F)c1	2	4.3%	0%	10%
30	CC(C)(C)NC(=O)CSCc1ccc(Br)cc1	6	-2.0%	-15%	-5%
31	COCCNC(=O)CN1CCCCCC1	10	0.4%	-1%	10%
32	COc1ccc(CC(NC(C)=O)C(=O)NC2CCN(C(=O)NCc3ccccc3)CC2)cc1OC (stereo not given)	0	1.9%	-1%	17%
33	CCOc1ccccc1C(=O)NCC(=O)OCC(=O)c1ccc2c(c1)OCCO2	-2	-0.1%	0%	7%
34	CC(C)c1nc2sc3c(=O)[nH]c(=S)[nH]c3c2c2c1CCCC2	-10	-0.7%	-15%	-17%
35	Cc1cc(NCc2ccccn2)n2nc(C)c(-c3ccc(Cl)cc3)c2n1	1	1.3%	?	-3%
36	Cc1ccc(NC2CCCN(C(=O)c3cc(C(C)C)[nH]n3)C2)cc1C (stereo not given)	·	3.4%	-3%	-9%
37	O=C(NCCS(=O)(=O)c1ccc(Br)cc1)c1ccc(Cl)cc1	·	1.4%	0%	4%
38	O=[N+]([O-])c1ccc(NCc2ccc(Cl)cc2)nc1	-12	-13%	-35%	-19%
39	CC(C)(C)NC(=O)C(Cc1ccccc1)N1C(=O)c2ccccc2C1=O (stereo not given)	·	-2.6%	-1%	0%
40	Nc1ccccc1-c1ccccc1N	-12	5.8%	-1%	-16%
41	Cc1ccc(S(=O)(=O)NCc2ccncc2)cc1C	1	20%	12%	26%
42	Cc1ccc(NC(=O)CCSc2nnc(Cc3ccccc3)o2)cc1	1	1.4%	-1%	1%
43	O=C(CSC1=NS(=O)(=O)c2ccccc2N1)Nc1nccs1	·	1.2%	·	?
44	Cc1ccc(NC(=O)c2csc3c2CCCC3)cc1	-3	-0.6%	-58%	17%
45	CNC(=O)CSc1nc(N)c2c3c(sc2n1)CCC3	4	0.2%	-21%	12%

From no. 42 up to 45, as listed above:
#	Compound	GLA inh pH 4.5	Rango-impB inh	miR-21 reporter	Rango dissoc inh
42	Cc1ccc(NC(=O)CCSc2nnc(Cc3ccccc3)o2)cc1	1	1.4%	-1%	1%
43	O=C(CSC1=NS(=O)(=O)c2ccccc2N1)Nc1nccs1	·	1.2%	·	?
44	Cc1ccc(NC(=O)c2csc3c2CCCC3)cc1	-3	-0.6%	-58%	17%
45	CNC(=O)CSc1nc(N)c2c3c(sc2n1)CCC3	4	0.2%	-21%	12%

Next part.
#	Compound	GLA inh pH 4.5	Rango-impB inh	miR-21 reporter	Rango dissoc inh
46	CCOc1ccccc1Oc1coc2cc(O)ccc2c1=O	6	2.6%	-31%	0%
47	Cc1ccc2nc(-c3ccccc3)c(NC(=O)c3ccco3)n2c1	4	10%	-6%	25%
48	Cc1ccc(S(=O)(=O)c2nc(-c3ccco3)oc2N2CCC(C)CC2)cc1	·	2.1%	-4%	17%
49	O=C(CCC(=O)N1CCOc2ccc(Cl)cc21)N1CCN(c2ccccn2)CC1	·	2.1%	5%	2%
50	COc1cc(C)ccc1OCc1cc(C(=O)N2CCC(c3ccc(F)cc3)C2)no1 (stereo not given)	·	-1.5%	-57%	1%
51	CN(C)S(=O)(=O)c1ccc(Cl)c(NC(=O)COC(=O)c2cc(-c3ccccc3)nc3ccccc23)c1	1	0.1%	-9%	-11%
52	COC(=O)c1cnc2ccccc2n1	-10	-0.5%	-2%	1%
53	O=C1N=c2ccccc2=C1c1sc(=S)n(NC(=O)c2ccccc2)c1O	-3	-0.4%	-3%	7%
54	Nc1cc(N)nc(SCC(=O)NC(=O)NC2CCCC2)n1	·	1.3%	·	6%
55	COCCNC(=O)Cn1nc(Cc2ccncc2)c2ccccc2c1=O	·	6.4%	-3%	17%
56	Cc1cccc(N/C(N)=N/c2nc(CSc3ccc(Cl)cc3)cc(=O)[nH]2)c1	4	-3.0%	-9%	-14%
57	O=C(c1cnc2sccn2c1=O)N1CCCc2ccccc21	-2	-0.6%	-4%	2%
58	CC[C@H]1OC(=O)C[C@@H](O)[C@H](C)[C@@H](O[C@@H]2O[C@H](C)C[C@H](N(C)C)[C@H]2O)[C@@H](CC=O)C[C@@H](C)C(=O)C=C[C@]2(C)O[C@H]2[C@@H]1C	-15	·	?	·
59	Cc1cc(NC(=O)COC(=O)CCS(=O)(=O)c2cc(Cl)ccc2Cl)no1	·	-0.3%	15%	10%
60	COc1ccc2nc(NC(=O)C3CCCN(S(=O)(=O)c4cccs4)C3)sc2c1 (stereo not given)	-5	-0.6%	15%	0%
61	O=C(Nc1nnc(-c2ccco2)o1)c1ccc(S(=O)(=O)N2CCOCC2)cc1	-8	-1.2%	-1%	-2%
62	O=C(Cc1c(F)cccc1Cl)Nc1ccc(S(=O)(=O)Nc2nccs2)cc1	·	5.1%	-8%	-16%
63	O=C(CCc1ccccc1)Nc1ccc(NC(=O)C2CC2)nc1	5	-3.4%	-14%	0%
64	COc1cc(/C=C2\SC(c3ccccc3)=NC2=O)cc(Cl)c1O	-3	?	-4%	-41%
65	COc1ccc(C)cc1NC(=O)CCNC(=O)Cn1ccc2ccccc2c1=O	·	1.0%	8%&7%	14%
66	Oc1ccc(Cl)cc1/C=C/c1ccc2cccc(O)c2n1	1	2.9%	0%	-15%
67	COc1ccc(S(=O)(=O)N(C)CC(=O)Nc2cccc(C(C)=O)c2)cc1C	11	0.7%	-2%	1%
68	O=S(=O)(NC1=NCCC1)c1ccc(F)cc1	6	-1.8%	-1%	6%
69	NS(=O)(=O)c1ccc(N/N=C/c2ccc(O)c(O)c2O)c([N+](=O)[O-])c1	6	?	3%	-4%
70	NNC(=O)CSc1c(-c2ccccc2)c2cc(Cl)ccc2[nH]c1=O	·	0.8%	6%	14%
71	S=c1[nH]nc(COc2ccccc2)n1/N=C/c1ccc(Cl)c(Cl)c1	·	1.7%	-6%	-9%
72	CC(C(=O)NN)c1ccc([N+](=O)[O-])cc1 (stereo not given)	1	0.8%	5%	-8%
73	COc1ccc(S(=O)(=O)NCC(=O)N(CC(=O)NC(C)(C)C)Cc2cccs2)cc1	6	-0.4%	0%	-8%
74	O=C(CCN1CCN(c2ccccc2)CC1)NNC(=O)c1cccc2ccccc12	10	0.2%	-2%	13%
75	O=C(NCc1csc2ccc(Cl)cc12)Nc1ccccc1	1	0.5%	-4%	1%
76	CCN(CC(=O)NCc1ccc(F)cc1)C(=O)C(C)Oc1cccc(Cl)c1 (stereo not given)	·	?	·	-17%
77	O=C(CCNC(=O)c1ccc([N+](=O)[O-])cc1)Nc1ccc(F)cc1F	·	-0.2%	-1%	8%
78	CC(=O)c1cccc(NC(=O)CNC(=O)c2sc3ccccc3c2Cl)c1	·	?	·	-22%
79	Cc1ccsc1/C=C1\SC(=S)N(CC2CCCO2)C1=O (stereo not given)	3	0.7%	-11%	22%
80	CC(C)CNS(=O)(=O)c1ccc(CCC(=O)Nc2ccc3c(c2)OCCO3)cc1	8	-0.2%	-6%	14%
81	COc1ccc(CNC(=O)C/C(C)=N/NC(=O)COc2ccccc2)cc1	1	1.0%	-5%	-5%
82	Cc1ccnc(N(C(=O)Nc2ccccc2)C2=NCC(C)(C)S2)c1	3	-0.3%	-45%	-3%
83	CCCn1c(SCC(=O)N2c3ccccc3CC2C)nnc1-c1ccco1 (stereo not given)	1	-1.0%	0%	?
84	COc1ccc(-c2nnc(NC(=O)c3ccccc3[N+](=O)[O-])s2)c(OC)c1	·	-0.1%	-8%	4%
85	COC(C(=O)Nc1ccnn1C1CCN(Cc2ccc(C)o2)CC1)c1ccccc1 (stereo not given)	·	2.8%	1%	10%
86	Cc1nc(SCC(=O)NC(=O)NC(C)(C)C)nc(C)c1C	-1	-1.1%	-2%	15%
87	Cc1cc(C)n2nc(C)c(Br)c2n1	0	0.1%	-6%	-11%
88	C=CCCCCCCCCC(=O)NN	3	?	1%	-5%
89	CCc1nc(C#N)c(N2CCCCC2)o1	-3	-2.5%	-14%	-6%
90	O=C(C(=O)c1cccnc1)c1cccnc1	0	-0.3%	-4%	-11%
91	O=C(CSc1cn[nH]n1)Nc1ccc(O)c(C(=O)O)c1	·	0.7%	-1%	-2%
92	CCSc1nnc2n1C(C)(C)Cc1ccccc1-2	2	1.5%	-11%	-2%
93	CC(NS(=O)(=O)c1cccc(S(=O)(=O)c2ccccc2)c1)C(=O)O (stereo not given)	-2	0.4%	4%	-5%
